FGF22 binding: FGF22 (human) thermal shift binding; Q9HCT0; recombinant FGF22 thermal shift, SYPRO orange fluorescence; percent of sucrose octasulfate shift, DMSO zero; calls only at 9.99 µM; 1.5% of 340,000 active;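 active = melting point raised past a set limit in the mean and every replicate; three in four hits are not shown here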
Target sequence (Q9HCT0 whole entry, looked up): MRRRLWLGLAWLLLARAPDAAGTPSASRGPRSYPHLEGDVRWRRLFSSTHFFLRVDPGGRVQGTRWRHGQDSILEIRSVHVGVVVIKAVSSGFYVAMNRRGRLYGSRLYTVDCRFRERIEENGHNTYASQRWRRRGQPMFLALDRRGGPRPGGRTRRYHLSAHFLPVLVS
rRNA inh HTS: selective bacterial rRNA inhibition in E. coli. E. coli WT GFP vs humanized-ribosome RFP mutants, fluorescence, 24 h; hits give low values; DMSO median 0, no signal -100. GFP signal change (wild-type ribosome), % (no concentration beside the values). 1.6% of 350,000 active;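 active = significant combined selectivity score with lowered wild-type GFP, culture density cut under 30%, mutant RFP and density less affected; inactive = any of these conditions unmet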; also: one replicate is shown; some compounds called inactive have numbers as strong as hits
HNF4A DNA FP: change in binding of human HNF4 alpha to DNA; 0.3% of 360,000 active; activity change, % at 10 µM; HNF4a-FITC DNA binding, fluorescence polarization, 1 h; in the data active = activity change above about 30%, passing the limit was not always enough;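 also: controls were the assay level and a saturating level of protein; the project sought stronger binding though the title names inhibitors; some compounds called inactive have numbers as strong as hits; positive values seem to mean higher polarization but the record does not say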
Target sequence (P41235 whole entry, looked up): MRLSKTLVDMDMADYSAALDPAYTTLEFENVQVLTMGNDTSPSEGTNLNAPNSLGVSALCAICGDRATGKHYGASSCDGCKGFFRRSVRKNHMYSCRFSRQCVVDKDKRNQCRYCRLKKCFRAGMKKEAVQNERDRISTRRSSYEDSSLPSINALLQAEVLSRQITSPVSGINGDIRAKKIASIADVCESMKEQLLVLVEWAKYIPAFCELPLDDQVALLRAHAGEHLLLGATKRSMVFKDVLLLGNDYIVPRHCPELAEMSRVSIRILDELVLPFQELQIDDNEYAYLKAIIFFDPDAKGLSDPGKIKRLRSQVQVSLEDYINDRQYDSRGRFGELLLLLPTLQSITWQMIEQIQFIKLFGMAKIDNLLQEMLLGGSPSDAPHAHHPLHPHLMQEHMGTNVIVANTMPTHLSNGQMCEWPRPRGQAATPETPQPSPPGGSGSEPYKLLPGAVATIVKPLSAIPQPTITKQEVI
ALR H2O2 inh: human ALR oxidase inhibition via reduced H2O2. purified ALR, DTT oxidation, H2O2 HRP-luminol luminescence. inhibition, % (concentration not given with the values). 3.8% of 290,000 active. AID 485317;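 active = mean and each replicate at 75% or more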;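 also: stock transfer was 7.5 nL into about 7.5 µL; 0% = neutral wells and 100% = wells with inactivated enzyme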
Target sequence (P55789 whole entry, looked up): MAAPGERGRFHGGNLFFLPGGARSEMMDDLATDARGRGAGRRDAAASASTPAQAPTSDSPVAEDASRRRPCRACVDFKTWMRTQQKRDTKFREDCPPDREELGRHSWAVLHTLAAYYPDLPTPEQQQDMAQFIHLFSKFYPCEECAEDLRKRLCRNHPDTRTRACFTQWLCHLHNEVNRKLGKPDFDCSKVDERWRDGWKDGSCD
Vif A3G: inhibitors of Vif binding to APOBEC3G peptide, primary screen, biochemical, TR-FRET, GST-Vif 1-94, biotin-A3G peptide, dose response retest (AID 1117319); TR-FRET GST-Vif / biotin-A3G peptide binding; higher % means a stronger effect; test concentration not given here; strong numbers were not always called active; inhibition, %; hits with a dose series show IC50 in µM; 0.57% of 260,000 active;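 active = above the screen mean plus three standard deviations and confirmed in dose response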;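 also: Vif residues 1-94 fused to GST binding biotinylated APOBEC3G peptide 110-148; 0% = full assay without inhibitor and 100% = GST in place of GST-Vif; retest series ran down from 100 µM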
E coli growth: E. coli growth inhibition; AID 1053175; Escherichia coli growth, OD600, 23 h; hits give low values; OD600 absorbance (concentration not given with the values); 0.21% of 330,000 active;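 active = OD600 absorbance below the run mean of sample wells minus 3.6 SD, in any replicate, cut at about 0.56 in these data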;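 also: stock transfer was 300 nL into about 60 µL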
MLL AF4-AF9 inh: inhibitors of human MLL-AF4/AF9 interaction; P42568; AlphaScreen, biotin-AF4 peptide binding to FLAG-AF9; inhibition, % at 10 µM; 0.47% of 350,000 active;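 active = every replicate reaching a set inhibition limit, whatever the replicate mean, cut at about 25% in these data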;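 also: 0% = plate neutral control median and 100% = total signal loss; the record names both 10 and 1 µM as test concentration; the first replicate is given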
rRNA inh HTS OD600: further read-out of rRNA inh HTS, marked with its call; OD600 change, %; measured here: OD600 growth;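 optical density of the mix in the first replicate; 0 = DMSO median and -100 = no signal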
rRNA inh HTS RFP: also measured in rRNA inh HTS; calls as there; RFP signal change, %; measured here: RFP humanized mutant strains;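 first replicate; 0 = DMSO median and -100 = no signal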
The depositor's hits bear a star; i = inactive; nt = not tested or not shown; & = joins results of further samples. This is a subset. The share of hits here may be higher or lower than overall.

SMILES	FGF22 binding	rRNA inh HTS	rRNA inh HTS OD600	rRNA inh HTS RFP	HNF4A DNA FP	ALR H2O2 inh	Vif A3G	E coli growth	MLL AF4-AF9 inh
Nc1c(-c2ccccc2)cnn1-c1ccc(C(=O)O)cc1	nt	nt	nt	nt	-4.3	16	3%	0.7	nt
C[C@@H]1CN([C@H](C)CO)C(=O)c2cccc(NC(=O)C3CCOCC3)c2O[C@@H]1CN(C)C	i	3	6	-0.9	nt	nt	nt	nt	-0.8
Cc1ccc(SCCC(=O)N/N=C/c2ccncc2)cc1	i	-14	-19	-0.8	0.4	-28	-5%	nt	1.1
Cc1ccc(NC(=O)C2CCCN(S(=O)(=O)c3cnc[nH]3)C2)c(Br)c1 (centres undefined)	i	4	4	4.0	0.2	71	2%	0.67	-1.9
CCN(Cc1ccccc1)C(c1cc2cc(C)cc(C)c2[nH]c1=O)c1nnnn1CCOC (centres undefined)	nt	nt	nt	nt	-1.5	-11	-1%&1%	0.7	nt
CCOC(=O)c1[nH]c(C)c(C(=O)Nc2ccc3c(c2)CCC3)c1C	nt	nt	nt	nt	1.4	-3	-3%	0.74	nt
C=CCn1c(SCc2ccc(Cl)c(Cl)c2)nnc1C(CO)NC(=O)c1ccc(OC)cc1 (centres undefined)	i	-18	-21	-1.9	0.9	-6	12%	0.66	1.1
CCCCNC(=O)Nc1cc(C(=O)OC)ccc1Cl	nt	nt	nt	nt	-0.4	0	5%	0.72	nt
COC(=O)c1c(C)[nH]c(C(=O)OCc2csc(CC(=O)Nc3ccccc3C)n2)c1C	i	-9	-5	3.3	2.9	1	-16%	0.73	2.1
Cc1onc(-c2ccccc2)c1C(=O)NCC1CCN(C(=O)C(=O)c2cccs2)CC1	i	10	13	-0.4	nt	nt	nt	nt	-2.5
C=C(C)COc1ccc(-c2ncncc2-c2ccccc2)c(O)c1	i	5	6	1.5	-1.3	3	7%	0.68	-2.8
CN(C)c1nc(N(C)C)nc(N2CC(=O)N(c3ccccc3)C2=N)n1	i	13	2	-0.3	5.8	-5	5%	0.71	-0.3
COCCN(CC(=O)Nc1cccc(C)c1C)C(=O)c1cc2ccccc2cc1OC	i	-3	-7	4.2	-1.0	nt	10%	0.66	-2.1
CS(=O)(=O)Nc1nc2n(n1)C(c1ccccc1)CC(c1ccccc1)N2 (centres undefined)	i	7	8	1.0	-2.8	-2	-10%	0.71	-0.5
C[C@@H]1CN([C@@H](C)CO)C(=O)c2cc(NS(C)(=O)=O)ccc2O[C@@H](C)CCCCO[C@H]1CN(C)S(=O)(=O)c1cccs1	i	-4	-5	1.1	nt	nt	nt	nt	-3.8
CCOc1cccc2cc(C(=O)NCc3ccccc3Cl)c(=O)oc12	i	-2	2	0.3	-2.2	1	nt	0.69	0.5
CC(C)CC(NC(N)=O)C(=O)NCCc1ccc(Cl)cc1 (centres undefined)	i	-1	-4	-4.4	7.6	1	1%	0.71	0.1
CCOC(=O)C1=NN(c2ccccc2)C(c2ccccc2)CC1=O (centres undefined)	nt	nt	nt	nt	0.1	nt	4%	0.68	nt
N#Cc1nc(-c2ccc(F)cc2)oc1N1CCCC1	nt	nt	nt	nt	2.3	-18	31%	0.71	nt
COc1cccc(CC(=O)OCC(=O)NCC(=O)Nc2cccc(C)c2C)c1	nt	2	7	2.8	1.9	-4	1%	0.65	-1.0

5 of the compounds above, with bars between the fields.
structure | FGF22 binding | rRNA inh HTS | rRNA inh HTS OD600 | rRNA inh HTS RFP | HNF4A DNA FP | ALR H2O2 inh | Vif A3G | E coli growth | MLL AF4-AF9 inh
CCOc1cccc2cc(C(=O)NCc3ccccc3Cl)c(=O)oc12 | i | -2 | 2 | 0.3 | -2.2 | 1 | nt | 0.69 | 0.5
C=CCn1c(SCc2ccc(Cl)c(Cl)c2)nnc1C(CO)NC(=O)c1ccc(OC)cc1 (centres undefined) | i | -18 | -21 | -1.9 | 0.9 | -6 | 12% | 0.66 | 1.1
C[C@@H]1CN([C@H](C)CO)C(=O)c2cccc(NC(=O)C3CCOCC3)c2O[C@@H]1CN(C)C | i | 3 | 6 | -0.9 | nt | nt | nt | nt | -0.8
N#Cc1nc(-c2ccc(F)cc2)oc1N1CCCC1 | nt | nt | nt | nt | 2.3 | -18 | 31% | 0.71 | nt
Cc1ccc(SCCC(=O)N/N=C/c2ccncc2)cc1 | i | -14 | -19 | -0.8 | 0.4 | -28 | -5% | nt | 1.1

The list goes on.
SMILES	FGF22 binding	rRNA inh HTS	rRNA inh HTS OD600	rRNA inh HTS RFP	HNF4A DNA FP	ALR H2O2 inh	Vif A3G	E coli growth	MLL AF4-AF9 inh
C[C@H](CO)N1C[C@H](C)[C@H](CN(C)C)Oc2ccc(NC(=O)C3CCCCC3)cc2CC1=O	i	5	-8	-3.0	nt	nt	nt	nt	0.9
COc1ccc(-c2cc(C(=O)Nc3c(C)n(C)n(-c4ccccc4)c3=O)c3ccccc3n2)cc1	i	-2	-1	1.2	-0.1	nt	nt	0.7	4.8
CCOc1ccc(NS(=O)(=O)c2ccc(OCC(=O)N3CCCC3)cc2)cc1	nt	nt	nt	nt	-5.5	-12	7%&0%	0.71	nt
O=C(NC1=NCCS1)c1ccccc1OCc1ccc(F)cc1	i	5	12	-0.3	-2.8	-1	nt	0.69	-3.2
COc1ccccc1CNC(=O)C[C@H]1C[C@@H]2c3cc(NS(=O)(=O)c4ccc(F)cc4)ccc3O[C@@H]2[C@H](CO)O1	i	-7	-8	4.7	nt	nt	nt	nt	0.3
COC(=O)C[C@@H]1CC[C@H]2[C@@H](COC[C@@H](O)CN2C(=O)Nc2ccccc2OC)O1	i	9	0	-0.3	nt	nt	nt	nt	-0.8
CCOc1ccc(N(C(C)=O)C2C=CS(=O)(=O)C2)cc1 (centres undefined)	i	0	4	5.2	2.4	42	23%	0.73	-1.5
Cc1ccc(C2OC3=C(C(=O)CC(C)(C)C3)C(N)=C2C#N)o1 (centres undefined)	i	7	8	-0.6	0.1	31	nt	0.71	-1.4
Cc1cc(NC(=O)COC(=O)CNC(=O)c2cccs2)c([N+](=O)[O-])cc1C	i	13	6	-1.0	0.9	3	5%	0.65	1.4
COCC(=O)Nc1ccc2c(c1)C(=O)N(C)C[C@H](OC)[C@H](C)CN(C(C)=O)[C@H](C)CO2	i	3	2	0.0	nt	nt	nt	nt	0.5
C[C@H](CO)N1C[C@H](C)[C@H](CN(C)Cc2ccccc2)OCCCC[C@H](C)Oc2ccc(NC(=O)Cc3ccccc3)cc2C1=O	i	1	-11	6.1	nt	nt	nt	nt	3.8
COc1ccc(C)cc1S(=O)(=O)N1CCN(c2cccc(C(F)(F)F)c2)CC1	nt	nt	nt	nt	-2.5	nt	-8%	0.7	nt
O=C(OCC#CCSc1nnc(-c2ccccc2)o1)c1cc2ccccc2o1	nt	nt	nt	nt	3.2	0	22%	0.73	nt
CCC(C)c1ccccc1N=Cc1ccc2c(c1)OCO2 (centres undefined)	i	0	-3	2.3	0.0	nt	nt	0.7	-5.8
COc1ccccc1NC(=O)N1CCCCN2[C@H](CO)[C@@H](c3ccc(-c4cccc(C#N)c4)cc3)[C@H]2C1	i	-37	-56	6.6	nt	nt	nt	nt	-0.5
CN(C)c1ccc(/C=C2/NC(=O)NC2=O)cc1	i	4	9	-5.3	8.6	99*	nt	0.68	-0.1
O=S(=O)(NCc1cn2ccccc2n1)c1cc(F)ccc1F	nt	nt	nt	nt	2.9	-5	22%	0.69	nt
O=[N+]([O-])c1ccc(/C=N/N2CCN(c3ccncc3S(=O)(=O)N3CCCCC3)CC2)cc1	i	12	5	-1.0	-1.2	nt	-3%	nt	2.0
COc1ccc(CCC(=O)Nc2cc([N+](=O)[O-])ccc2OC)cc1	nt	nt	nt	nt	0.9	-4	16%	0.71	nt
O=C(Nc1c(C(=O)N2CCC(N3CCCCC3)CC2)oc2ccccc12)c1c(F)cccc1F	i	11	6	4.4	1.4	-6	-2%	0.71	3.0
C=CCN(CC=C)C(=S)NC(=O)/C=C/c1ccc(C)cc1	nt	nt	nt	nt	0.9	-2	-12%	0.69	nt
Cc1cccc(CC(=O)N2CCC(n3nccc3NC(=O)C3CC3)CC2)c1	i	14	12	1.3	2.3	-5	6%	0.64	-2.0
O=C(O[C@@H](C(=O)O)[C@@H](OC(=O)c1ccccc1)C(=O)O)c1ccccc1	i	-3	-5	-2.7	0.2	-1	nt	0.69	nt
Cc1ccc(O)c(N/C=C/C(=O)c2ccc(F)cc2)c1	i	2	0	-6.0	3.5	2	6%	0.69	-1.9
CCN(CC)c1ncnc2c1ncn2[C@H]1CN(Cc2ccccc2)C[C@@H](CO)O1	i	-7	-14	-3.8	2.0	nt	nt	nt	-5.7
C/C(=N\NC(=O)c1ccc2ccccc2c1)c1cccnc1	i	-3	-1	3.5	-0.9	-6	nt	nt	-1.5
CC(C)=CCN1CCN(Cc2cnc(N3CCCC3)s2)CC1CCO (centres undefined)	i	13	5	1.5	1.0	-12	nt	0.73	-1.1
COc1ccc(NC(=O)CSc2nnc(CNC(=O)c3ccco3)o2)cc1	i	0	-1	-2.2	-5.9	-5	3%	0.69	-2.8
CC1CN(Cc2nc3c(c(=O)n(C)c(=O)n3C)n2Cc2ccccc2)CC(C)O1 (centres undefined)	i	5	4	0.4	1.4	-6	-4%	0.79	6.8
CCOC(=O)N/N=C/c1cc(C)n(-c2ccccc2)c1C	i	8	22	0.7	1.6	-21	0%	nt	7.1
O=C(N/N=C/c1ccccc1)C(=O)N/N=C/c1ccccc1	i	16	17	-1.6	-0.7	-2	nt	nt	-1.1
COc1ccc(NC(=O)/C(=C\c2ccccc2)NC(=O)c2ccco2)cc1	i	-2	2	-0.2	1.0	1	nt	0.71	-0.3
CCOc1ccc(C2c3c(oc4cc(C)c(C)cc4c3=O)C(=O)N2CCCN2CCOCC2)cc1 (centres undefined)	i	-1	-1	-2.0	-0.7	32	5%	0.76	1.2
O=[N+]([O-])c1ccc2[nH]cc(S(=O)(=O)N3CCN(c4cccc(Cl)c4)CC3)c2c1	i	-1	-1	0.6	-1.4	1	nt	0.63	7.1
Cc1cc2ncn(C3CC(=O)N(Cc4ccc(N5CCCC5=O)cc4)C3=O)c2cc1C (centres undefined)	i	-3	2	0.6	2.1	-10	1%	0.72	-3.5
Cn1c(Nc2ccc(F)cc2)nc2cc(-c3ccsc3)sc2c1=O	i	8	20	1.1	0.1	nt	nt	nt	1.4
c1ccc(SCCN2CCc3ccccc3C2)cc1	nt	nt	nt	nt	-2.2	nt	-9%	0.65	nt
COc1ccc(CN2C[C@@H](C)[C@@H](OC)CN(C)C(=O)c3cc(NC(C)=O)ccc3OC[C@@H]2C)cc1	i	1	2	-2.3	nt	nt	nt	nt	-0.8
O=Cc1c(NCCc2ccc(F)cc2)c2ccccc2[nH]c1=O	i	-2	-5	1.2	1.6	8	nt	0.62	-1.0
CCOc1ccccc1-c1cncc(NC)n1	i	-2	7	4.2	2.3	nt	nt	nt	12
CCN(CC)c1nc2c(s1)C(=O)CC(C)(C)C2	nt	nt	nt	nt	-2.3	-1	-1%	0.66	nt
O=[N+]([O-])c1cc(C(F)(F)F)cc([N+](=O)[O-])c1NCCCN1CCOCC1	i	-10	-8	-2.6	62*	-25	24%	0.66	6.7
O=c1[nH]nc2n1CCCCC2	nt	nt	nt	nt	1.6	-6	-4%	0.75	nt
CCC(=O)Nc1ccc(S(=O)(=O)Nc2c(NC)c3ccccc3oc2=O)cc1	i	-1	0	0.6	1.5	0	nt	0.65	-1.2
O=C(COc1ccccc1)Nc1nnc(S(=O)(=O)N2CCCCCC2)s1	i	7	-5	1.4	0.8	nt	nt	0.78	1.0
CCNC(=O)[C@H]1[C@H](CO)[C@H]2Cn3c(ccc(-c4cccc(F)c4)c3=O)[C@H]2N1Cc1nccs1	i	-1	1	0.1	nt	nt	nt	nt	-0.7
O=[N+]([O-])c1ccc(O)c(/C=N/Nc2nc3ccccc3[nH]2)c1	i	-55	-81	-30	-0.1	89*	23%	nt	32*

High-throughput results from PubChem.
